Compound activity from PubChem.
nsP2pro inh: inhibitors of chikungunya virus nsP2 protease; Q8JUX6; FRET peptide cleavage, nsP2pro, fluorescence 1 h; Potency, µM (highest dose often 24.9 µM), without a hit: at the highest dose activity change, negative = inhibition, usual class: inhibitors; hit rate 1.1% among 31,000; active means well fitted inhibition curve with a large enough effect; inconclusive means small, poorly fitted or top-dose-only effect; inactive means no such curve, though single readings can be large or run the other way; also: nearly all actives have a fitted effect of over 60% in size; a reference inhibitor and vehicle were the controls
Target sequence (Q8JUX6 whole entry, looked up): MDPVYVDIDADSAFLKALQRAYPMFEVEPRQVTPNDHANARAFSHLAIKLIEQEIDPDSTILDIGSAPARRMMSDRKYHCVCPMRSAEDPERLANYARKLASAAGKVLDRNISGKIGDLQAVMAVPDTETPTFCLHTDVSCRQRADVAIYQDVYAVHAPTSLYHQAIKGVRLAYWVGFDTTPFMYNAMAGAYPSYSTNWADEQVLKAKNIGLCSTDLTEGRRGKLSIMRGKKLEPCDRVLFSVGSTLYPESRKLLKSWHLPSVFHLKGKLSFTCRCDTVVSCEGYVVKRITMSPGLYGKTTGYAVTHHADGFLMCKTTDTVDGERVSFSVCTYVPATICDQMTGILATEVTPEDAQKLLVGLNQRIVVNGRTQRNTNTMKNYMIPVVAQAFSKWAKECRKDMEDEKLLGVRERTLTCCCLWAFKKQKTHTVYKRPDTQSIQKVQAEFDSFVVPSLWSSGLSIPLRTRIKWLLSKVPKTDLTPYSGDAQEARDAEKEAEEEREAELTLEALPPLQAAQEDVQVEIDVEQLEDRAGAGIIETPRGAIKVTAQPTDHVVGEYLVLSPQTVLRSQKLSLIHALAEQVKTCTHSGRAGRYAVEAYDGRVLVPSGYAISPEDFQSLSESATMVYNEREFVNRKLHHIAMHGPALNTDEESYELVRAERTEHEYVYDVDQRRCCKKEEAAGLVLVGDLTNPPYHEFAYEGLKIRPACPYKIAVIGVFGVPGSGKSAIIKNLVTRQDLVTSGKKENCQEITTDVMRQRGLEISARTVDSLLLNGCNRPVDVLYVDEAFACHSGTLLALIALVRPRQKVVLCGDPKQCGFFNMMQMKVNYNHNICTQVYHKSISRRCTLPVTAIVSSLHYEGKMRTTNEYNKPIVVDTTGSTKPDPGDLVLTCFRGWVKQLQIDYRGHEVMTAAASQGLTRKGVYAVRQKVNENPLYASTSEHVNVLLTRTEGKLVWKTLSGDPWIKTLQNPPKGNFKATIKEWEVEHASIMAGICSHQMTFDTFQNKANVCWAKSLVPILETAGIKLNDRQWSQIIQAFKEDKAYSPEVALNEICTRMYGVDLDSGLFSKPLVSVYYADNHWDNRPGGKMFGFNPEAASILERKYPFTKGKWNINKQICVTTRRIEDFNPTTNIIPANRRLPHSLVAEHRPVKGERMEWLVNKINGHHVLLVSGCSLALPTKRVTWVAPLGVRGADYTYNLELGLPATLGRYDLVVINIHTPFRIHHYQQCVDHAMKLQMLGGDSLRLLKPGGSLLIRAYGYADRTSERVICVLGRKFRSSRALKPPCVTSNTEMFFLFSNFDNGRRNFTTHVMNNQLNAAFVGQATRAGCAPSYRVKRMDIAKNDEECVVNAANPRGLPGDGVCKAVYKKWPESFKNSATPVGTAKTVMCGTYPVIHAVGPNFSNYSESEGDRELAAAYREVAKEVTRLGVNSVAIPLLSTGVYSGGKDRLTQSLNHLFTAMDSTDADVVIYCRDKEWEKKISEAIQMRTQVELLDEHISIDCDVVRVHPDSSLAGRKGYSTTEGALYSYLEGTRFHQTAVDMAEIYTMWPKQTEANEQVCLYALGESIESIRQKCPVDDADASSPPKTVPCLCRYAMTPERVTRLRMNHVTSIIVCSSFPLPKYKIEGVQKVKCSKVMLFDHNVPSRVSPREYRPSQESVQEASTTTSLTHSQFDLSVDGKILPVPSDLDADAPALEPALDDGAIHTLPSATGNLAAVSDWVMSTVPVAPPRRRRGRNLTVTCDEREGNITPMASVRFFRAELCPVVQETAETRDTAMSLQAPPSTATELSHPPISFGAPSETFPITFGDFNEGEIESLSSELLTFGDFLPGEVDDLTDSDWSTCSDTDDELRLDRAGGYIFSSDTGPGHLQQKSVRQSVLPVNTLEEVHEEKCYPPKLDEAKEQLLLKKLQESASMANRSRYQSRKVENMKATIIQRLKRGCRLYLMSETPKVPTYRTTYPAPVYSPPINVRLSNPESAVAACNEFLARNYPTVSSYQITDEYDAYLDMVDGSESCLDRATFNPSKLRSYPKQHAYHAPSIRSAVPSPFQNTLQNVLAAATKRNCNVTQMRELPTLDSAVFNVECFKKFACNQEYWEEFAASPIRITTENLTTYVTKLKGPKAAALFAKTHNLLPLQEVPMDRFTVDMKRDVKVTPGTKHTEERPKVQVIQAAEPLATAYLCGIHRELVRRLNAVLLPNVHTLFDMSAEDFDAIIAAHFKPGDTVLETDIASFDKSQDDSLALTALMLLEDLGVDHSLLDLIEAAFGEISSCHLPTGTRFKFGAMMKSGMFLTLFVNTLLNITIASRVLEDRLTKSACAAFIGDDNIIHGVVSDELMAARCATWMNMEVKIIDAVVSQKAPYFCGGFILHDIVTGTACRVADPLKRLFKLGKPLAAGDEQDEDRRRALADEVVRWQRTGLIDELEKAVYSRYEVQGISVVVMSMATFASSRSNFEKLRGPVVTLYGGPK
Numbers without * were called inactive; i = inactive; u = inconclusive; [ ] = remark or other dose. % is scaled to controls: 0 for no effect and ±100 for the full control effect; potency is read from the fitted curve at half-maximal effect. The list is partial; rates above refer to the full screens.

The opening four compounds as a preview:
SMILES | nsP2pro inh
COc1cccc(-c2nc(SCC(=O)NC3CCCC3)c(-c3ccc(F)cc3)[nH]2)c1 | -15%
COC1CCOC2(CCN(C(=O)c3cc(-c4ccccc4)n[nH]3)CC2)C1 (stereo unspecified) | -1%
CC(C)N(Cc1ccccc1)C(=O)C1CCCN(c2ncnc3onc(-c4ccc(F)cc4)c23)C1 (stereo unspecified) | -20%
COc1ccc2c(c1)CC(C(=O)Nc1ccc(OC)cc1OC)CO2 (stereo unspecified) | -13%

The whole of this part, from the start:
SMILES | nsP2pro inh
COc1cccc(-c2nc(SCC(=O)NC3CCCC3)c(-c3ccc(F)cc3)[nH]2)c1 | -15%
COC1CCOC2(CCN(C(=O)c3cc(-c4ccccc4)n[nH]3)CC2)C1 (stereo unspecified) | -1%
CC(C)N(Cc1ccccc1)C(=O)C1CCCN(c2ncnc3onc(-c4ccc(F)cc4)c23)C1 (stereo unspecified) | -20%
COc1ccc2c(c1)CC(C(=O)Nc1ccc(OC)cc1OC)CO2 (stereo unspecified) | -13%
CCC(CN)=C(c1ccccc1)c1ccccc1 | u
O=C(c1ccccc1F)N1CCn2ncc(C(=O)N3CCOCC3)c2C1 | i
NC(=O)c1c(NC(=O)C2CCCO2)sc2c1CCCC2 (stereo unspecified) | i
O=C(CNC(=O)c1cccc(-c2ccc(C(F)(F)F)cc2)c1)NCC(F)(F)F | i
CC(C)Cc1nc(NC(=O)C[C@H]2NC(=O)c3ccccc3NC2=O)n[nH]1 | 4%
CCOc1ccc(S(=O)(=O)N2CCN(c3ccc(Cl)c(Cl)c3)CC2)c2ccccc12 | -22%
Cc1ccc(-c2ccc(N)nc2)c2cccnc12 | -1%
COC(=O)c1ccc(Nc2nnc(-c3ccc(C)c(S(=O)(=O)N4CCN(C)CC4)c3)c3ccccc23)cc1 | -11%

Quoted from the listing, 2 compounds:
SMILES | nsP2pro inh
COc1cccc(-c2nc(SCC(=O)NC3CCCC3)c(-c3ccc(F)cc3)[nH]2)c1 | -15%
COC1CCOC2(CCN(C(=O)c3cc(-c4ccccc4)n[nH]3)CC2)C1 (stereo unspecified) | -1%

(next part)
SMILES | nsP2pro inh
CCn1c(=O)cc(SCC(=O)NCCc2cccc(C)c2)c2ccccc21 | -20%
CCc1cc(C(=O)N2CCC(c3nnc(Cn4cncn4)n3C)CC2)no1 | -2%
O=C1OCCN1C1CCN(Cc2ccc(F)cc2)CC1 | 0%[39.2 µM]
CCNC(=O)N[C@H]1[C@H](O)[C@@H](N2CCN(c3ccccc3OC)CC2)[C@@H]2OC[C@H]1O2 | -14%[39.2 µM]
COc1ccc(NC(=O)CCS(=O)(=O)c2cccc3nonc23)cc1Cl | -16%
Cc1cc2c(cc1N1C(=O)c3cccc4c(CCCO)ccc(c34)C1=O)n(C)c(=O)n2C | -9%[10 µM]
CCOc1ccc(CCNC(=O)c2cc3sccc3[nH]2)cc1OCC | 0%
COc1ccc(OCC(=O)NCc2ccc3c(c2)CCN3C(=O)c2cccc(C)c2)cc1 | -20%
NCCCCCC(=O)O | 3%
COc1ccc(NC(=O)Cn2nnc(C(=O)NCc3ccco3)c2N)c(OC)c1 | -26%
COc1ccc(-n2nc3c(c2NC(=O)C(=O)N2CCN(C)CC2)CSC3)cc1 | u
O=C1Nc2ccccc2C2(CCN(C(=O)c3cccnc3)C2)O1 (stereo unspecified) | -8%[39.2 µM]
C/C(=C\CCC(C)CCO)C(=O)O[C@@H]1[C@@H](O)[C@H](OC2OC=C(C(=O)O)C3CCC(C)(O)C23)O[C@H](CO)[C@H]1O (stereo partly specified) | 135%[activator][10 µM]
COc1ccccc1Nc1ncc2c(n1)CN(C(=O)c1cc3ccccc3n1C)CCN2 | -21%[39.2 µM]
Cc1ccc2c(c1)N(C(=O)NCc1ccccc1)CCO2 | u
COc1ccc(OC)c(S(=O)(=O)NCC(c2ccc(N(C)C)cc2)N2CCOCC2)c1 (stereo unspecified) | -13%
Cn1c(=O)c2c(-c3ccccc3Br)n(C(C)(C)C)cc2n(C)c1=O | -4%
Cc1cc(-c2nnc3n2CCCCC3)c(C)n1-c1cccnc1 | -5%
CCC(=O)N1Cc2ccccc2CC2(CCCN2CC2CCOCC2)C1 (stereo unspecified) | u
CC1CCC2(O1)C(C)(C)CC(O[C@@H]1O[C@H](CO[C@@H]3OC[C@](O)(CO)[C@H]3O)[C@@H](O)[C@H](O)[C@H]1O)CC2(C)O (stereo partly specified) | 9%[10 µM]
Cc1ccc(-n2nc(C)c([C@@H]3C=C[C@@H](NC(=O)NC(C)C)C3)c2C)cc1Cl | -5%[39.2 µM]
CC1(C)S[C@@H]2[C@H](NC(=O)C(C(=O)O)c3ccccc3)C(=O)N2[C@H]1C(=O)O (stereo partly specified) | 1%
CC[N+](C)(CC)CCOC(=O)C(O)(c1ccccc1)c1ccccc1 | -19%
Cc1nc(NC(=O)N2CCCC2C(N)=O)sc1-c1csc(C(C)(C)C)n1 (stereo unspecified) | 11%

Part of the list above, as a markdown table.
| structure | nsP2pro inh |
| --- | --- |
| CC[N+](C)(CC)CCOC(=O)C(O)(c1ccccc1)c1ccccc1 | -19% |
| C/C(=C\CCC(C)CCO)C(=O)O[C@@H]1[C@@H](O)[C@H](OC2OC=C(C(=O)O)C3CCC(C)(O)C23)O[C@H](CO)[C@H]1O (stereo partly specified) | 135%[activator][10 µM] |
| Cc1cc(-c2nnc3n2CCCCC3)c(C)n1-c1cccnc1 | -5% |
| Cc1ccc(-n2nc(C)c([C@@H]3C=C[C@@H](NC(=O)NC(C)C)C3)c2C)cc1Cl | -5%[39.2 µM] |

The list continues:
SMILES | nsP2pro inh
O=C(O)c1cccc(C2CCCN(C(=O)CCCn3ccnc3)C2)c1 (stereo unspecified) | 2%
Cc1nnc2n1CCC(N(C)C(=O)NC1CCCC1)CC2 (stereo unspecified) | -3%
CN1Cc2c(Cl)cc(Cl)cc2[C@H](c2cccc(S(=O)(=O)NCCOCCOCCNC(=O)NCCCCNC(=O)NCCOCCOCCNS(=O)(=O)c3cccc([C@@H]4CN(C)Cc5c(Cl)cc(Cl)cc54)c3)c2)C1 | -18%
CN(C)c1ccc(C(=O)NC[C@H]2O[C@@H](CO)[C@@H](O)[C@H]2N(C)Cc2ccccc2)cc1 | -10%
CN1CCC(O)(CCn2cnc(-c3ccccc3)c2-c2ccsc2)CC1 | 14%
CCC(C(=O)NCCc1ccc(Cl)cc1)n1ccc2cc(S(=O)(=O)N3CCCCC3)ccc21 (stereo unspecified) | -27%
CCNC(=O)N1CCC[C@@H](O)[C@H](NC(=O)c2ccc(OCc3c(C)noc3C)cc2)C1 | -2%[39.2 µM]
COC(=O)CNC(=O)c1cn2cc(-c3cccc(C(F)(F)F)c3)sc2n1 | i
N#Cc1c(NC(=O)c2cc3nc(-c4ccc(Br)cc4)cc(C(F)(F)F)n3n2)sc2c1CCCC2 | -17%
CC(C(=O)O)c1ccc2c(c1)Cc1cccnc1O2 (stereo unspecified) | -4%
COc1ccccc1OCc1nnc(-c2ccccc2)o1 | -21%
CCc1nn(CCCN2CCN(c3cccc(Cl)c3)CC2)c(=O)n1CCOc1ccccc1 | -3%
CC=CC1C(C(=O)OCc2c(F)c(F)c(COC)c(F)c2F)C1(C)C (stereo unspecified) | 15%
Cc1ccccc1OCCSc1nnc(-c2ccc([N+](=O)[O-])cc2)o1 | -16%
CCOc1ccccc1N(CC)C(=O)Nc1cn(C)c(=O)c2ccccc12 | -9%
C[C@]1(CO)[C@H]2Cc3sc(NC(=O)c4ccco4)nc3[C@@H](CC(=O)NC3CCCC3)[C@]2(C)CC[C@H]1O | -15%
CCc1ccc(NC(=O)C(=O)NNC(=O)Cc2ccc(Cl)c(Cl)c2)cc1 | i
Cc1cccc(N2CCN(C(=O)CN3CCSc4ccccc43)CC2C)c1 (stereo unspecified) | -9%
COc1ccc(CC(=O)N(C)C2CCc3ccccc3C2)cc1 (stereo unspecified) | -3%[39.2 µM]
CC(=O)c1ccc(NC(=O)CSc2nccn2Cc2ccc3c(c2)OCO3)cc1 | -21%
c1csc(CNc2ncnc3ccc(-c4ccc5c(c4)OCO5)cc23)n1 | 1%
Cc1ccnc(NC(=S)N2CCC(Nc3cccc(C(F)(F)F)c3)CC2)c1 | i
O=C1Nc2ccccc2CN(CC2CC2)C12CCNCC2 | u
COc1ccc([N+](=O)[O-])c(S(=O)(=O)c2ccccc2)n1 | 2.2µM*
O=C(O)c1ccc(O)c2ncc(NC3CCNCC3)cc12 | -4%
COc1ccc(CNC(=O)c2ccc3nnc(C4CCOCC4)n3c2)cc1 | -1%
CC(Cn1cncn1)Nc1ccc(-c2nc(Cc3ccc(F)cc3)no2)cn1 (stereo unspecified) | i
CCC(O)c1cc2c(cc1NC(=O)c1cccc(Br)c1)OCCO2 (stereo unspecified) | -14%
CS(=O)(=O)N1CCc2cc(C(=O)NCCc3ccccc3)ccc21 | 0%
S=C(NCCCc1cnc[nH]1)NCCCN(Cc1ccccc1)c1ccc(Br)cn1 | i
COc1cc(O)c2c(=O)cc(-c3ccc(O)cc3)oc2c1 | 8%
C/C=C(\C)C(=O)O[C@H]1[C@H](O)[C@]2(COC(C)=O)[C@H](O)C[C@]3(C)C(=CCC4[C@@]5(C)CC[C@H](O[C@@H]6O[C@H](C(=O)O)[C@@H](O[C@@H]7O[C@H](CO)[C@@H](O)[C@H](O)[C@H]7O)[C@H](O)[C@H]6O[C@@H]6O[C@H](CO)[C@@H](O)[C@H](O)[C@H]6O)[C@](C)(CO)C5CC[C@]43C)[C@@H]2CC1(C)C (stereo partly specified) | u
NCc1ccc(Oc2ncnc3ccccc23)cc1 | -9%[39.2 µM]
CC(=O)Nc1sc2c(c1-c1nc3ccccc3s1)CC(C)NC2 (stereo unspecified) | i
C=C(C(=O)O)[C@@H]1CC[C@@]2(C)CC[C@@H](O)C(=C)C2C1 (stereo partly specified) | -7%
COc1ccc(C(=O)NCC(c2cccs2)S(=O)(=O)c2ccc(F)c(C)c2)cc1 (stereo unspecified) | -8%
COc1ccccc1OCC(=O)NCc1nc(-c2ccc(Cl)cc2)no1 | -14%
COc1ccc(Cn2c(SCc3ccc(C(=O)NCCc4ccccc4)cc3)nc3cccnc32)cc1 | -10%
CCOCC(=O)N[C@@H]1CN(S(C)(=O)=O)C[C@H]1CN(C)C | -13%
CN1CCOc2c(C(=O)NCc3cnn(C)c3)cc(-c3ccc([S+](C)(=O)[O-])cc3)cc21 | 1%[39.2 µM]
CCOc1cc(C)c(CN2CCCC(O)(CN(C)C)C2)cc1C(C)C (stereo unspecified) | i
COc1ccc(CNC(=O)C[C@@H]2O[C@H](CNCc3cccc(Cl)c3)[C@@H](O)[C@H]2O)cc1 | -1%[39.2 µM]
COc1ccc(CC(=O)N2CCc3c([nH]c4ccccc34)C2c2ccc(SC)cc2)cc1 (stereo unspecified) | -11%
Cn1c(=O)n(C)c2cc(NS(=O)(=O)c3ccccc3)c(NCc3ccccc3)cc21 | -24%
CC(=O)O[C@H]1C[C@@H](OC(C)=O)C(C)(C)C2C[C@@H](O)[C@]3(C)C(CC[C@@]4(C)[C@H](C5=CC(=O)OC5O)C[C@H]5O[C@]543)[C@]21C (stereo partly specified) | 0%[10 µM]
CC12CCC3C(C1)c1c(cc(O)c(C(=O)c4ccccc4)c1OC3(C)C)O2 (stereo unspecified) | 14%
CC12CCC3C(CCC4CC(O)CCC43C)C1CCC2=O (stereo unspecified) | -19%
CC1(C)CCC2(C(=O)O)CCC3(C)C(=CCC4C5(C)CCC(O)C(C)(CO)C5C(O)CC43C)C2C1 (stereo unspecified) | 20%[10 µM]
Cc1sc2ncn(CC(=O)N3CCN(c4ccccc4)CC3)c(=O)c2c1S(=O)(=O)N1CCC(C)CC1 | -16%
CN(Cc1ccccc1)C(=O)[C@H](NC(=O)c1cc2cc(NC(=O)c3ccccc3-c3ccc(C(F)(F)F)cc3)ccc2n1C)c1ccccc1 | -4%
C=C[C@H](/C=C\c1ccc(O)cc1)c1ccc(O)cc1 | 22%
CCCn1cc(S(=O)(=O)N[C@H](CC)C2CC(O)C2)cn1 (stereo partly specified) | i
COc1ccc(NC(=O)c2[nH]c(C)c(C(C)=O)c2C)cc1S(=O)(=O)Nc1cccc(C#N)c1 | i
Cc1ccc(OCC(=O)Nc2ccc3nc(SCC(=O)N4CCCC4)sc3c2)cc1C | -12%
NC(=O)C1CCN(c2nc(-c3ccc(-c4ccccc4)cc3)cs2)CC1 | 0%
COCCC1(NS(=O)(=O)N(C)C)CCN(S(C)(=O)=O)CC1 | -3%
Cc1ccc(NC(=O)C2CCN(c3nc4ccccc4nc3C(F)(F)F)CC2)cc1C | -6%
Oc1c(I)cc(Cl)c2cccnc12 | 56%[activator]
CN1c2cc(O)c(N=NC(N)=O)cc2CC1S(=O)(=O)O (stereo unspecified) | 14%
Cc1cc(C(=O)N2c3ccccc3CC2c2nnc(C(C)C)o2)nn1C (stereo unspecified) | i

3 entries from above in another layout:
compound: NC(=O)C1CCN(c2nc(-c3ccc(-c4ccccc4)cc3)cs2)CC1
  nsP2pro inh: 0%

compound: CN(Cc1ccccc1)C(=O)[C@H](NC(=O)c1cc2cc(NC(=O)c3ccccc3-c3ccc(C(F)(F)F)cc3)ccc2n1C)c1ccccc1
  nsP2pro inh: -4%

compound: COCCC1(NS(=O)(=O)N(C)C)CCN(S(C)(=O)=O)CC1
  nsP2pro inh: -3%

The listing continues:
SMILES | nsP2pro inh
N#Cc1cnc(NS(=O)(=O)c2ccc(NC(=O)Cc3ccc(Cl)c(Cl)c3)cc2)s1 | i
Cc1c(Cl)cccc1NC(=O)Cn1nc(C(F)(F)F)c2c1CCC2 | -9%
CC(C)(C)C1CCc2c(sc(NC(=O)c3cccc(Cl)c3)c2C(=O)NCc2ccco2)C1 (stereo unspecified) | -16%
COc1ccc(C2Nc3ccccc3C(=O)N2Cc2ccccc2)cc1COc1ccc(NC(C)=O)cc1 (stereo unspecified) | 1%
C=C1C(=O)OC[C@H]2C(C(=O)O)=CC3CC(C)(C)C[C@@]132 (stereo partly specified) | 10%
COc1ccc(CC2(CO)CCNCC2)cc1 | -1%
